# Assay outcomes from PubChem BioAssay.
# HNF4A DNA FP: change in binding of human HNF4 alpha to DNA; activity change, % at 10 µM; 0.3% of 360,000 active; AID 1224865; HNF4a-FITC DNA binding, fluorescence polarization, 1 h; in the data active = activity change above about 30%, passing the limit was not always enough;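 note: controls were the assay level and a saturating level of protein; the project sought stronger binding though the title names inhibitors; some compounds called inactive have numbers as strong as hits; positive values seem to mean higher polarization but the record does not say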
# Target sequence (P41235 whole entry, looked up): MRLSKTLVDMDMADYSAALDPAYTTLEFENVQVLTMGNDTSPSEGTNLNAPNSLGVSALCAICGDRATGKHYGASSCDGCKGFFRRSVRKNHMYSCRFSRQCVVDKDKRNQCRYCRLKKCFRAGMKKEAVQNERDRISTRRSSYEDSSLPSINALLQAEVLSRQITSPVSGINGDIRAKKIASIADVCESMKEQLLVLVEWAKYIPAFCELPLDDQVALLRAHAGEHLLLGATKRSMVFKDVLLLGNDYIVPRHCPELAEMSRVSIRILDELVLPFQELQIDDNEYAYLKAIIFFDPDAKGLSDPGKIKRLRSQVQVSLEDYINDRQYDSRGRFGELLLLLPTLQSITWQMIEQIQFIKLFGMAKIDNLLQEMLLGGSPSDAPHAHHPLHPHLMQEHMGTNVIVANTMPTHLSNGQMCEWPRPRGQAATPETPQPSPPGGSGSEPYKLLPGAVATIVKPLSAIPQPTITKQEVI
# ALR inh: blocks human ALR sulfhydryl oxidase activity; P55789; purified ALR, DTT oxidation, H2O2 HRP-luminol luminescence; inhibition, % (concentration not given with the values); 3.8% of 290,000 active;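 active = mean and each replicate at 75% or more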;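 note: stock transfer was 7.5 nL into about 7.5 µL; 0% = neutral wells and 100% = wells with inactivated enzyme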
# Target sequence (P55789 whole entry, looked up): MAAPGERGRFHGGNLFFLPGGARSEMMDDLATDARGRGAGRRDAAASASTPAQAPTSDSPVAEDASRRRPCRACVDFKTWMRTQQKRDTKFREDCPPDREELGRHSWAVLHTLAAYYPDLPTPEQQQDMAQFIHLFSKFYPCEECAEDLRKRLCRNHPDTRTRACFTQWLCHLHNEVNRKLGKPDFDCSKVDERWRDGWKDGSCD
# Active calls of the source: *.
SMILES,HNF4A DNA FP,ALR inh
COc1ccc(COc2cc(-c3cccc(OC)c3)nc3ccc(NC(=O)c4ccc(N(C)C)cc4)cc23)cc1,5.8,-19.5
Oc1ccc(N=Nc2cccc(C(F)(F)F)c2)cc1C=Nc1ccc(N2CCOCC2)cc1,-4.2,11.2
Cc1cccc(-c2n[nH]c(=S)n2/N=C/c2ccc(C)s2)c1,-0.7,-1.1
COc1cc(/C=N/NC(=O)c2cnccn2)ccc1O,-2.0,-16.1
COc1ccc(/C=N/Nc2ncnc3sc4c(c23)CCCC4)cc1O,-1.2,45.1
O=C(COC(=O)c1ccc2ncsc2c1)Nc1ncc(Cl)cc1Cl,-0.4,-29.4
CCOc1ccc(OCc2cccc(C(=O)N/N=C/c3cccnc3)c2)cc1,0.6,-3.7
C#Cc1ccc([C@H]2C=C(C(=O)OCC=C)O[C@@H](OCCCCO)C2)cc1,-3.6,-0.6
CCCCNC(=S)N(C)/N=C/c1c(F)c(F)c(F)c(F)c1F,-2.7,-29.1
COC(=O)N/N=C/c1cn(CC(C)COc2ccccc2)c2ccccc12 (stereo unspecified),-0.7,-2.3
COc1cc(/C=N/NC(=O)Cc2cccs2)c([N+](=O)[O-])cc1OC,0.1,-9.2
CCOC(=O)C1C(=O)C=C(/C=C/c2ccc(N(C)C)cc2)CC1c1ccccc1 (stereo unspecified),118.1,-7.5
CC1(C)C(/C=C/C=C/C=C/C=C2\N(CCCCS(=O)(=O)O)c3ccc4ccccc4c3C2(C)C)=[N+](CCCCS(=O)(=O)[O-])c2ccc3ccccc3c21,-24.9,58.9
N/C(=N\OC(=O)c1cccc(Cl)c1)c1ccccn1,9.4,1.0
Cn1c(=O)c2c(ncn2CC(=O)N/N=C/C(Br)=C/c2ccccc2)n(C)c1=O,0.4,-1.4
CCOc1cc(/C=N/NC(=O)OC)ccc1OCCSc1ccc(Cl)cc1,1.2,-2.3
CC(NC(=O)OCc1ccccc1)C(=O)NCC(=O)NC(Cc1ccc(OC(C)(C)C)cc1)C(=O)OC(C)(C)C (stereo unspecified),-1.9,-0.6
NC(=O)C1=C[C@@H](c2ccc3c(c2)OCO3)C[C@@H](OCCCCO)O1,-5.1,-12.2
O=C(N/N=C/c1ccccc1O)/C(=C/c1ccccc1)CCO,5.5,2.1
CCOc1ccc(C2=CC(c3ccccc3)n3ncnc3N2)cc1 (stereo unspecified),-3.1,8.3
CN1C(=O)/C(=C/c2ccc(-c3ccccc3[N+](=O)[O-])o2)SC1=Nc1ccc(Cl)c(C(=O)O)c1,-6.2,0.9
O=c1[nH]c(/C=C/c2ccccc2[N+](=O)[O-])nc2ccccc12,-2.0,0.6
O=C(OCC(=O)c1c[nH]c2ccccc12)c1cc2ccccc2cc1O,0.7,-13.7
O=C(O)c1ccc(/C=N/N2CCN(Cc3ccccc3)CC2)cc1,2.4,-1.3
COc1ccc2nc(C)cc(N/N=C/c3ccccc3)c2c1,-12.0,-1.3
CCn1c(SCC(=O)N/N=C/c2cc(OC)c(O)c(OC)c2)nc2ccccc21,-1.9,98.8*
O=C(Cn1c2ccccc2c(=O)c2ccccc21)N/N=C/c1ccc(N2CCCC2)c([N+](=O)[O-])c1,-13.9,-1.0
CC(C)C[C@H]1CN=C(Nc2ccccc2)N1CC1CCC(C)CC1 (stereo partly specified),-1.5,-1.9
CCn1cc(C(=O)O)c(=O)c2cc(F)c(N/N=C/c3ccccc3)cc21,-3.2,-14.1
CC[C@H](C)[C@H]1O[C@]2(CC[C@@H]1C)C[C@@H]1C[C@@H](CC=C(C)[C@@H](O[C@H]3C[C@H](OC)[C@@H](O[C@H]4C[C@H](OC)[C@@H](O)[C@H](C)O4)[C@H](C)O3)[C@@H](C)C=CC=C3CO[C@@H]4[C@H](O)C(C)=C[C@@H](C(=O)O1)[C@]34O)O2,2.9,4.1
Cc1cc([N+](=O)[O-])cc2c1NC(=O)C2(O)N1CCCCCC1 (stereo unspecified),-2.0,-1.0
C[C@@]12C(=O)Nc3ccc(F)cc3C(=O)N1[C@H]1c3ccccc3OC[C@@H]1[C@@H]2c1ccccc1,0.8,2.9
CCOc1cc(/C=N/NC(=O)C(=O)NCCCOC(C)C)cc(Br)c1O,0.5,-21.4
COc1ccc(/C=N/NC(=O)c2ccc(COCC(F)(F)C(F)F)cc2)cc1,1.5,-9.5
O=C(N/N=C/c1ccc(-c2cccc(C(F)(F)F)c2)o1)c1ccccc1O,-5.4,-2.9
CCS(=O)(=O)C1=NSC2=NC(=O)/C(=C\c3ccc(OS(=O)(=O)c4ccccc4)cc3)C(=N)N21,8.3,11.8
COc1cc(/C=N/Nc2ccc([N+](=O)[O-])cc2S(=O)(=O)N2CCOCC2)cc(OC)c1OC,3.0,0.1
N#CCCn1cc(/C=N/NC(=O)c2ccncc2)c(-c2ccc(F)cc2)n1,-0.3,-13.8
Cc1ccc(N=C2C(=O)Nc3ccc(C)c(Br)c32)cc1,-2.5,-21.4
C/C(=N\NC(=O)c1ccncc1)c1cc2ccccc2oc1=O,1.8,18.1
C=CC(=O)Nc1ccc(Nc2nc(NC3CCC(N(C)C)CC3)nc3c2ncn3C(C)C)cc1 (stereo unspecified),18.0,-5.3
Cc1ccc(C(NC(=O)/C=C\c2ccc3c(c2)OCO3)C(=O)Nc2ccc3c(c2)OCO3)cc1 (stereo unspecified),2.6,-13.0
COc1cc(/C=c2\sc3nc(=O)c(-c4ccccc4)nn3c2=O)ccc1OCCC(C)C,18.2,-4.2
O=C(N[C@H](CO)Cc1ccccc1)c1ccco1,-2.0,3.1
C#CCOCCOCCOCCNc1nc(N2CCN(C(=O)CCCCCCCCCCNC(=O)[C@@H](CCSC)n3cc(CCO)nn3)CC2)nc(N2CCN(C(=O)CCCCCCCCCCNC(=O)[C@H](CO)n3cc(CCCCCN)nn3)CC2)n1,19.1,-9.8
CSc1ccc(/C=C(/NC(=O)c2ccc(C)cc2)C(=O)Nc2cccc(F)c2)cc1,2.8,-8.6
CCOc1cc(/C=N\NC(N)=O)cc(Br)c1OC(C)C,-8.1,-0.9
C/C(=N\NC(=O)c1ccc(C)cc1C)c1ccc2c(c1)OCO2,0.3,6.6
Cc1cc(C)nc(N/N=C/c2ccccc2OCc2ccc([N+](=O)[O-])cc2)n1,-1.2,-2.2
C=CCc1c(C)nc(-c2ccccc2)nc1N/N=C(\C)c1ccc(N)cc1,-4.1,-6.1
# (listing goes on)
SMILES,HNF4A DNA FP,ALR inh
CN1/C(=C\C(=O)CSc2nnc(NCc3ccccc3)s2)C(C)(C)c2ccccc21,11.6,-0.6
COc1cc(/C=N/OCC(=O)NC2CCCCC2)ccc1OCc1ccccc1,-3.1,-7.6
COCc1cc(/C=N\NC(=O)c2ccc(Cl)cc2)ccc1OC,0.8,0.7
Cc1ccc(/C=N/NS(=O)(=O)c2ccc([N+](=O)[O-])cc2)o1,2.3,4.8
COc1cccc(NC(=O)CC2S/C(=N\S(=O)(=O)c3ccccc3)N(c3ccccc3)C2=O)c1 (stereo unspecified),3.8,-24.8
O=C(CCCOc1ccc(Cl)cc1Cl)N/N=C/c1ccccc1O,1.1,-3.2
COc1cccc(/C=N/Nc2nc3ccccc3n3cnnc23)c1,3.4,2.2
Cc1ccc2nc(NC(=O)CSc3nncc(=O)n3N)sc2c1,2.3,99.3*
Cn1cc([N+](=O)[O-])c(C(=O)N/N=C/c2ccc([N+](=O)[O-])cc2)n1,0.0,-11.4
COC(=O)[C@@H]1[C@@H](C)N(Cc2ccccc2)C(=O)N[C@H]1c1ccccc1,-3.3,7.5

# Ordered by the number under HNF4A DNA FP (highest first): some entries from above.
SMILES,HNF4A DNA FP,ALR inh
COc1cccc(NC(=O)CC2S/C(=N\S(=O)(=O)c3ccccc3)N(c3ccccc3)C2=O)c1 (stereo unspecified),3.8,-24.8
COc1cccc(/C=N/Nc2nc3ccccc3n3cnnc23)c1,3.4,2.2
Cn1cc([N+](=O)[O-])c(C(=O)N/N=C/c2ccc([N+](=O)[O-])cc2)n1,0.0,-11.4
COc1cc(/C=N/OCC(=O)NC2CCCCC2)ccc1OCc1ccccc1,-3.1,-7.6

# 4 compounds drawn at random from the list so far, as already listed:
SMILES,HNF4A DNA FP,ALR inh
COC(=O)[C@@H]1[C@@H](C)N(Cc2ccccc2)C(=O)N[C@H]1c1ccccc1,-3.3,7.5
Cn1cc([N+](=O)[O-])c(C(=O)N/N=C/c2ccc([N+](=O)[O-])cc2)n1,0.0,-11.4
COCc1cc(/C=N\NC(=O)c2ccc(Cl)cc2)ccc1OC,0.8,0.7
O=C(CCCOc1ccc(Cl)cc1Cl)N/N=C/c1ccccc1O,1.1,-3.2

# Profiles as entered above. Order of values: HNF4A DNA FP, ALR inh
# O=c1[nH]c(/C=C/c2ccccc2[N+](=O)[O-])nc2ccccc12 as listed: -2.0, 0.6
# CC1(C)C(/C=C/C=C/C=C/C=C2\N(CCCCS(=O)(=O)O)c3ccc4ccccc4c3C2(C)C)=[N+](CCCCS(=O)(=O)[O-])c2ccc3ccccc3c21 as listed: -24.9, 58.9
# COCc1cc(/C=N\NC(=O)c2ccc(Cl)cc2)ccc1OC as listed: 0.8, 0.7
# CCOc1cc(/C=N/NC(=O)OC)ccc1OCCSc1ccc(Cl)cc1 as listed: 1.2, -2.3

# Other entries
SMILES,HNF4A DNA FP,ALR inh
Cc1cc(C)c(NC(=O)CO/N=C2\CCCc3nonc32)c(C)c1,3.9,-26.5
O=C(CSc1nc2ccc(Cl)cc2[nH]1)Nc1ccc2c(c1)CCC2,14.2,-1.9
CCOC(=O)c1c(/N=C/c2cc(OC)cc([N+](=O)[O-])c2O)sc(C)c1C,2.1,46.0
COc1ccc(/C=N/NC(=O)Cn2cnc3ccccc3c2=O)cc1OC,3.8,-2.7
O=C1N[C@@H](Cc2ccccc2)C(=O)N2[C@@H]3N(S(=O)(=O)c4ccc(F)cc4)c4ccccc4[C@]3(Br)C[C@@H]12,-0.7,-1.4
Cn1c(=O)nc2n(Cc3ccccc3)c3cccc(Cl)c3cc-2c1=O,1.2,-7.1
CN1CCc2c(sc(NC(=O)c3ccc(S(=O)(=O)N4CCCCCC4)cc3)c2C(N)=O)C1,36.9,29.9
Cc1ccc(S(=O)(=O)N2CCN(CC(=O)N/N=C\c3ccc(Cl)c([N+](=O)[O-])c3)CC2)cc1,2.0,-16.0
C#CCOCCOCCOCCNc1nc(N2CCN(C(=O)CCCCCCCCCCNC(=O)[C@H](CCCCN)n3cc(C)nn3)CC2)nc(N2CCN(C(=O)CCCCCCCCCCNC(=O)[C@@H]([C@H](C)O)n3cc(C)nn3)CC2)n1,-0.8,-4.7
CNc1ccccc1C(C)(C)c1cc(-c2cc(C)cc(C)c2)no1,-0.5,-45.9
Cc1cc(C)c2sc(N(CCCN(C)C)C(=O)c3ccc(S(=O)(=O)N4CCc5ccccc5C4)cc3)nc2c1,1.5,-1.6
C/C(CC(=O)Nc1ccccn1)=N\NC(=O)c1ccc(C)cc1,-0.1,28.9
O=[N+]([O-])c1ccc(/C=N/NC(=S)Nc2ccccc2)o1,5.5,-49.1
Cc1cc(C)c2nc(/N=C(\N)NC(=O)Nc3ccccc3)nc(C)c2c1,6.2,-1.5
Cc1ccccc1N(CC(=O)N/N=C/c1cc(Br)c(C)o1)S(C)(=O)=O,-1.6,-7.4
O=C(CN1CCN(Cc2ccc(Cl)cc2)CC1)N/N=C/c1ccncc1,-2.2,2.8
O=C(NCc1ccccc1)/C(NC(=O)c1ccccc1)=C(/Sc1ccccn1)c1ccccc1,2.6,2.1
CCN1C(=NCCc2cccs2)N[C@@H](c2cccs2)C(C(=O)OC)=C1C,1.6,-0.9
Cn1ccnc1-c1nnn(-c2ccc(Cl)c(Cl)c2)n1,1.2,18.3
CN(C)c1ccc(-n2cccc2/C=N/n2cnnc2)cc1,-0.7,98.6*
COc1ccc(OCC(=O)N/N=C(\C)c2ccc(-n3ccnc3)cc2)cc1,-3.0,-1.6
C#CCOCCOCCOCCNc1nc(N2CCN(C(=O)CCCCCCCCCCNC(=O)Cn3cc(C[C@@H](C)O)nn3)CC2)nc(N2CCN(C(=O)CCCCCCCCCCNC(=O)[C@H](CCCN=C(N)N)n3cc(C[C@@H](C)CC)nn3)CC2)n1,160.0,-3.4
CCOC(=O)[C@@H]1[C@H]2COc3ccccc3[C@H]2N2C(=O)N(c3ccc(Cl)cc3)C(=O)[C@@]12C,3.3,2.1
Cn1c(N/N=C\c2cccc(O)c2)cc(=O)n(C)c1=O,-0.1,-25.4
CC(/C=C/C=C/c1ccccc1)=N/NC(=O)CNc1ccccc1C,2.8,-3.5
O=c1cc(-c2ccc(O)c(O)c2)oc2cc(O[C@@H]3O[C@H](CO)[C@@H](O)[C@H](O)[C@H]3O)cc(O)c12,-6.7,99.0*
Cc1ccc(/C=C(\NC(=O)c2ccccc2)C(=O)NCCc2ccccn2)o1,1.3,18.6
O=C(NC(=S)Nc1cccc(NC(=O)c2ccc(Cl)cc2Cl)c1)c1cccs1,-1.5,1.8
C(=N\NC(=Nc1ccccc1)c1ccccn1)/c1ccccn1,2.4,17.6
C#CCOCCOCCOCCNc1nc(N2CCN(C(=O)CCCCCCCCCCNC(=O)[C@@H](CCC(=O)O)n3cc(CCCCCN)nn3)CC2)nc(N2CCN(C(=O)CCCCCCCCCCNC(=O)[C@H](CO)n3cc(CCCCCN)nn3)CC2)n1,7.8,-5.3
C#CCOCCOCCOCCNc1nc(N2CCN(C(=O)CCCCCCCCCCNC(=O)[C@H]([C@@H](C)CC)n3cc(CCCCCN)nn3)CC2)nc(N2CCN(C(=O)CCCCCCCCCCNC(=O)[C@H](CCCCN)n3cc(CCCC(=O)O)nn3)CC2)n1,5.0,-7.8
COC(=O)CCC(=O)OC1(C)C(=O)C=C2C=C(c3ccsc3)OC=C2C1=O (stereo unspecified),8.5,-12.3
Nc1nc2nc[nH]c2c(=O)[nH]1,-0.2,-19.3
N/C(=N\OC(=O)c1ccccc1Cl)c1cccnc1,-2.2,-0.5

# A portion of the library; the hit share may differ from the screen's.
